High-throughput results: PubChem BioAssay, several laboratories
Env fusion inh: HIV envelope-mediated fusion inhibition. HeLa-JRFL Env/CEM21 cell fusion, luciferase. inhibition, % at 12.3 µM. 1.1% of 360,000 active. AID 651610;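 active means mean replicate inhibition score of at least 50 and every replicate individually at or above 50; inconclusive means only one of the two criteria met; inactive means mean below 50 and not all replicates reaching 50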;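 further: 0% = plate neutral controls and 100% = maraviroc near 300 nM; one replicate is shown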
eIF4H inh: inhibitors of RNA binding by human eIF4H; AID 2012; inhibition, % at 35 µM; eIF4H fluorescence polarization binding assay; Q15056; 0.94% of 290,000 active;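 active means 50% or more with normal probe brightness, or confirmed in later tests; inconclusive means above 50% with abnormal brightness, or retests that disagree; inactive means below 50% or failed in later tests; about a fifth of its hits are not listed in these tables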;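 further: calls also rest on retests at 20 µM and on dose response follow-up; 0% = protein and probe with vehicle and 100% = probe without protein; strong numbers were not always called active; many hits fall short of the cut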
MT1-MMP act inh: blocks activation of human MT1-MMP; P50281; HT1080 RFP-PRO-GFP cells, GFP/RFP ratio fluorescence, overnight; percent of plate control window, DMSO zero; GFP/RFP ratio change, % at 20 µM; 0.061% of 360,000 active;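 active means GFP/RFP ratio change of at least 30% with cell ATP level not reduced by more than half and red fluorescence within 50% of control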; further: strong numbers were not always called active
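Test system: HT1080 RFP-PRO-GFP cells; Benchmarks: DMSO and RFP-L50D-GFP cell wells; Timing: cells overnight before dosing, compound overnight, 37 °C, 5% CO2; Compound: one 20 µM compound dose with 1% DMSO; Read-out: GFP/RFP fluorescence ratio.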
CSC inhib: cancer stem cell inhibition. cancer stem cell-like cells viability, luminescence. inhibition, % at 7.5 µM. 1.1% of 300,000 active;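 active means mean at 75% or more and at least half the replicates too; inconclusive means mean and replicates disagree; tested in HMLE shEcad cells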;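 further: 0% = median of negative and 100% = median of positive control wells; the first replicate is given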
Yeast UUG start: alters start codon recognition fidelity in yeast | activity score, % at 18.7 µM | S. cerevisiae UUG-firefly luciferase reporter, luminescence/redox ratio | 0.13% of 350,000 active;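 active means replicate mean at a twofold rise or more, about +100% in these data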;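 further: firefly luciferase made from a UUG start codon reports start codon fidelity; reporter light over untreated wells divided by growth signal over untreated wells; some hits fall short of that in this replicate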
Rce1 inh: blocks yeast Ras-converting enzyme; Q03530; yeast membranes, quenched prenylated peptide cleavage fluorescence; calls only; 0.27% of 290,000 active;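 active means fall in fluorescence gain of 50% or more versus controls, with final raw signal at or below 3038400; inconclusive means same 50% fall but final raw signal above 3038400; inactive means fall in fluorescence gain under 50%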;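 further: plate controls were neutral control wells for no effect and wells lacking membranes for full effect; tested at 10 µM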
Target sequence (Q03530 whole entry, looked up): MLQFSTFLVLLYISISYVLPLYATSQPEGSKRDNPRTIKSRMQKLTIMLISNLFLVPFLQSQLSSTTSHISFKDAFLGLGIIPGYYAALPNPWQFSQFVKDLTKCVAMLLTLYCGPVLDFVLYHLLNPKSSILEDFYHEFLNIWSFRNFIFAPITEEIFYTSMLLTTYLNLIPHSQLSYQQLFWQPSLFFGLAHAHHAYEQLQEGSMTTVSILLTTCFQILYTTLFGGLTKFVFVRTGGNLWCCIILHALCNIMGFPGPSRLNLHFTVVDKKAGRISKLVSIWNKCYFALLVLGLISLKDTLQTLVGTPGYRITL
PABP FP inh: blocks human PABP binding to poly(A) RNA; P11940; fluorescence polarization; inhibition, % at 35 µM; 1% of 290,000 active; AID 2014;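 active means 50% or more with normal probe brightness, or confirmed in later tests; inconclusive means above 50% with abnormal brightness, or retests that disagree; inactive means below 50% or failed in later tests; about a fifth of its hits are not listed in these tables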;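 further: calls also rest on retests at 20 µM and on dose response follow-up; controls were probe without protein and protein plus probe with vehicle; some compounds called inactive have numbers as strong as hits; many hits fall short of the cut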
Target sequence (P11940 whole entry, looked up): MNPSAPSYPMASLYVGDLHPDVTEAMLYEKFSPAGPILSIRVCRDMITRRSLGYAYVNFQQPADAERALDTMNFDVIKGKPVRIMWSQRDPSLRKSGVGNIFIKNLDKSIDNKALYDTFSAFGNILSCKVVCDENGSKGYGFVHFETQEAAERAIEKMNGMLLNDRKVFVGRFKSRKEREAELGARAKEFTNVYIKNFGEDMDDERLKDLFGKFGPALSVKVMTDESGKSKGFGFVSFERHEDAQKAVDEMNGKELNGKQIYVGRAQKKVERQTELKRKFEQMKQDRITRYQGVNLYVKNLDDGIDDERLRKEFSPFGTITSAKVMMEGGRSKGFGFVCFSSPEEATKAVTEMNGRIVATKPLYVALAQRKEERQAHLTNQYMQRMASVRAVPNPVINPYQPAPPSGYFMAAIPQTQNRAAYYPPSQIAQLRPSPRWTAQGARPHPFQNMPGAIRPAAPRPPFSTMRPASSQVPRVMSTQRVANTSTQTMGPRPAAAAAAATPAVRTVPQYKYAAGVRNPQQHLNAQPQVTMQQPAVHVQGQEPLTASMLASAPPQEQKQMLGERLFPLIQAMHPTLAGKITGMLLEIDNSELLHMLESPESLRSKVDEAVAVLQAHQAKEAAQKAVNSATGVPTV
MT1-MMP act inh RFP: second read-out of MT1-MMP act inh, no call of its own (marks repeat the call); RFP signal change, %; measured here: RFP expression control read;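 0 = vehicle wells; hits needed this value within 50% of zero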
The depositor's hits bear a star; & = joins results of further samples; [ ] = dose if it differs, or a comment. The list is partial; the hit share may differ from the screen's.

Start of the data: the first 3 entries (preview)
How did O=C(Nc1cccc(F)c1)c1ccc(-c2ccccc2C(F)(F)F)o1 do in these assays?
Env fusion inh: -61; eIF4H inh: 1; PABP FP inh: -7

Results for COc1ccc(C(=O)Nc2ccc3ncccc3c2)cc1 ?
Env fusion inh: -24; eIF4H inh: -6; MT1-MMP act inh: 3; CSC inhib: 3; Yeast UUG start: -41; Rce1 inh: inactive; PABP FP inh: -4; MT1-MMP act inh RFP: -1

How did CC(C)(C)c1ccc(O)c(/C=N\O)c1 do in these assays?
Env fusion inh: 1; eIF4H inh: -6; MT1-MMP act inh: 1; CSC inhib: -11; Yeast UUG start: -13; Rce1 inh: inactive; PABP FP inh: -1; MT1-MMP act inh RFP: 4

This part in full, previewed entries included:
How did O=C(Nc1cccc(F)c1)c1ccc(-c2ccccc2C(F)(F)F)o1 do in these assays?
Env fusion inh: -61; eIF4H inh: 1; PABP FP inh: -7

Results for COc1ccc(C(=O)Nc2ccc3ncccc3c2)cc1 ?
Env fusion inh: -24; eIF4H inh: -6; MT1-MMP act inh: 3; CSC inhib: 3; Yeast UUG start: -41; Rce1 inh: inactive; PABP FP inh: -4; MT1-MMP act inh RFP: -1

How did CC(C)(C)c1ccc(O)c(/C=N\O)c1 do in these assays?
Env fusion inh: 1; eIF4H inh: -6; MT1-MMP act inh: 1; CSC inhib: -11; Yeast UUG start: -13; Rce1 inh: inactive; PABP FP inh: -1; MT1-MMP act inh RFP: 4

How did O=C(Nc1nc2ccccc2c(=O)s1)c1ccc(F)cc1Cl do in these assays?
Env fusion inh: -27; eIF4H inh: -4; MT1-MMP act inh: 1; CSC inhib: 6; Yeast UUG start: -13; Rce1 inh: inactive; PABP FP inh: 2; MT1-MMP act inh RFP: 4

What do the screens show for `CCOc1cccc(N2C(=O)CC(N3CCN(c4ccc(S(=O)(=O)CC)cc4)CC3)C2=O)c1` (configuration not stated)?
Env fusion inh: -4; eIF4H inh: -3; MT1-MMP act inh: -2; CSC inhib: -2; Rce1 inh: inactive; PABP FP inh: 17; MT1-MMP act inh RFP: 7

Results for CCn1c2ccccc2c2cc(/C(C)=N/O)ccc21 ?
eIF4H inh: 1; MT1-MMP act inh: 2; CSC inhib: 10; Yeast UUG start: -18; Rce1 inh: inactive; PABP FP inh: -4; MT1-MMP act inh RFP: -3

Results for c1ccc(CCN2CN(CCCN3CCOCC3)c3nc4ccccc4n3C2)cc1 ?
Env fusion inh: -109; eIF4H inh: -1; MT1-MMP act inh: 5; CSC inhib: -16; Yeast UUG start: -8; Rce1 inh: inactive; PABP FP inh: 2; MT1-MMP act inh RFP: 9

What do the screens show for `CC(CCc1ccccc1)NC(=O)CCC1CCCC1` (configuration not stated)?
Env fusion inh: 20; MT1-MMP act inh: -1; CSC inhib: 3; Yeast UUG start: 5; MT1-MMP act inh RFP: -6

What do the screens show for `CSC(=S)N/N=C(\C)c1ccccc1`?
Env fusion inh: -29; eIF4H inh: 21; MT1-MMP act inh: 6; CSC inhib: 9; Yeast UUG start: -10; Rce1 inh: inactive; PABP FP inh: 0; MT1-MMP act inh RFP: 6

Results for CCC1(CC)Cc2ccccc2C(Nc2c(C)n(C)n(-c3ccccc3)c2=O)=N1 ?
eIF4H inh: 5; MT1-MMP act inh: 2; CSC inhib: 2; Yeast UUG start: -16; Rce1 inh: inactive; PABP FP inh: 2; MT1-MMP act inh RFP: 1

What do the screens show for `O=C(NCCc1cccs1)Nc1nnc([C@H]2C[C@H](O)[C@@H](CO)O2)s1`?
Env fusion inh: 3; MT1-MMP act inh: 0; Yeast UUG start: -5; MT1-MMP act inh RFP: 3

Results for Cc1ccc(C)c(NS(=O)(=O)c2ccc(-c3cnc(C4CC4)o3)cc2)c1 ?
Env fusion inh: 21; eIF4H inh: -4; MT1-MMP act inh: 9; CSC inhib: 75*; Yeast UUG start: -15; Rce1 inh: inactive; PABP FP inh: 15; MT1-MMP act inh RFP: -7

How did Cn1c(=O)c(Oc2cc(Cl)cc(Cl)c2)nc2ccccc21 do in these assays?
Env fusion inh: 7; eIF4H inh: -4; MT1-MMP act inh: -6; CSC inhib: -6; Yeast UUG start: -19; Rce1 inh: inactive; PABP FP inh: -5; MT1-MMP act inh RFP: 6

What do the screens show for `Cc1ncc([N+](=O)[O-])n1CC(=O)Nc1ccc2c(c1)OCO2`?
Env fusion inh: -2; eIF4H inh: 1; MT1-MMP act inh: -3; Yeast UUG start: -17; Rce1 inh: inactive; PABP FP inh: -7; MT1-MMP act inh RFP: 1

What do the screens show for `CN1CCN(Cc2nnc(-c3ccccc3)o2)CC1`?
Env fusion inh: 17; eIF4H inh: 23; MT1-MMP act inh: 2; CSC inhib: -7; Rce1 inh: inactive; PABP FP inh: -1; MT1-MMP act inh RFP: 5

What do the screens show for `CC(=O)C1(C)N(O)C(C)(C)C(c2cccs2)=[N+]1[O-]` (configuration not stated)?
Env fusion inh: 16; eIF4H inh: 1; MT1-MMP act inh: 0; CSC inhib: 0; Rce1 inh: inactive; PABP FP inh: 7; MT1-MMP act inh RFP: 0

What do the screens show for `OC(COCc1ccc2c(c1)OCO2)CN1CCN(Cc2ccccc2)CC1` (configuration not stated)?
eIF4H inh: -2; MT1-MMP act inh: 5; CSC inhib: -8; Yeast UUG start: -8; Rce1 inh: inactive; PABP FP inh: 23; MT1-MMP act inh RFP: 4

What do the screens show for `Cc1ccc(SCC(=O)OCC(=O)N(CC(C)C)C2CCS(=O)(=O)C2)cc1C` (configuration not stated)?
Env fusion inh: -28; MT1-MMP act inh: 0; CSC inhib: 8; Yeast UUG start: 5; Rce1 inh: inactive; MT1-MMP act inh RFP: 2

How did CC1=C(C(=O)OCCOc2ccccc2)C(c2ccsc2)NC(=O)N1C (configuration not stated) do in these assays?
Env fusion inh: 20; eIF4H inh: -1; MT1-MMP act inh: 1; Rce1 inh: inactive; PABP FP inh: -6; MT1-MMP act inh RFP: -16

Results for COc1ccc(C(c2nnnn2Cc2ccccc2)N2CCN(c3nc4ccccc4s3)CC2)cc1 (configuration not stated) ?
eIF4H inh: -1; MT1-MMP act inh: -18; CSC inhib: -1; Yeast UUG start: -7; Rce1 inh: inactive; PABP FP inh: 4; MT1-MMP act inh RFP: -12

What do the screens show for `COc1ccccc1CNC(=O)COC(=O)CNS(=O)(=O)c1ccc(C)cc1`?
eIF4H inh: -6; MT1-MMP act inh: -4; CSC inhib: -4; Yeast UUG start: -4; Rce1 inh: inactive; PABP FP inh: 9; MT1-MMP act inh RFP: 0

How did Cn1ccnc1SCC(=O)c1ccc2ccccc2c1 do in these assays?
Env fusion inh: -39; eIF4H inh: 10; MT1-MMP act inh: 1; CSC inhib: -7; Rce1 inh: inactive; PABP FP inh: -5; MT1-MMP act inh RFP: 7

What do the screens show for `C[C@H](CO)N1C[C@H](C)[C@@H](CN(C)C(=O)Nc2ccc(C(F)(F)F)cc2)Oc2c(NC(=O)Nc3ccccc3)cccc2C1=O`?
Env fusion inh: 23[16.7 µM]; MT1-MMP act inh: 2; Yeast UUG start: 5&-6; MT1-MMP act inh RFP: -3

Results for CCc1ccc(NC(=O)COC(=O)CCc2nc3cc(S(=O)(=O)N(CC)CC)ccc3n2C)cc1 ?
Env fusion inh: 21; eIF4H inh: -10; MT1-MMP act inh: -1; CSC inhib: 9; Yeast UUG start: -8; Rce1 inh: inactive; PABP FP inh: -10; MT1-MMP act inh RFP: 2

Results for CC1(c2nnc(-c3ccc(Cl)cc3)o2)CC(c2cccc(Cl)c2)=NO1 (configuration not stated) ?
Env fusion inh: -41; eIF4H inh: 2; MT1-MMP act inh: 2; CSC inhib: 9; Yeast UUG start: -13; Rce1 inh: inactive; PABP FP inh: -2; MT1-MMP act inh RFP: 0

How did COc1ccc(N2CCN(C(=O)c3cc(N4C(=O)C5C6CCC(C6)C5C4=O)ccc3Cl)CC2)cc1 (configuration not stated) do in these assays?
Env fusion inh: 12; eIF4H inh: -1; MT1-MMP act inh: 6; CSC inhib: -18; Rce1 inh: inactive; PABP FP inh: 1; MT1-MMP act inh RFP: -6

Results for C=CCc1cccc2cc(C(=O)OCC)c(=O)oc12 ?
eIF4H inh: 11; MT1-MMP act inh: 3; CSC inhib: 9; Yeast UUG start: -16; Rce1 inh: inactive; PABP FP inh: 8; MT1-MMP act inh RFP: 1

Results for O=C(Nc1ccccc1F)C1CCN(C(=O)NCc2ccccc2)CC1 ?
Env fusion inh: 1; eIF4H inh: -8; MT1-MMP act inh: -2; Yeast UUG start: 1; Rce1 inh: inactive; PABP FP inh: -8; MT1-MMP act inh RFP: -1

How did CC(=O)NC(CC(=O)OCC(=O)N1CCc2ccccc21)c1ccccc1 (configuration not stated) do in these assays?
Env fusion inh: 5; eIF4H inh: 9; MT1-MMP act inh: 1; CSC inhib: -1; Yeast UUG start: 16; Rce1 inh: inactive; PABP FP inh: 0; MT1-MMP act inh RFP: -1

How did COc1ccc(Cl)cc1N1C(=NC(=O)C2CCCO2)SC2CS(=O)(=O)CC21 (configuration not stated) do in these assays?
Env fusion inh: -23; eIF4H inh: 5; MT1-MMP act inh: 1; CSC inhib: 1; Yeast UUG start: -13; Rce1 inh: inactive; PABP FP inh: 0; MT1-MMP act inh RFP: 0

Results for CC(C(=O)NC1CCCC1)N1CCN(S(=O)(=O)c2ccccc2Cl)CC1 (configuration not stated) ?
Env fusion inh: 1; MT1-MMP act inh: 3; Yeast UUG start: 2; MT1-MMP act inh RFP: 0

Results for Cc1ccccc1N=Cc1cccc(O)c1O ?
eIF4H inh: inconclusive; MT1-MMP act inh: -5; CSC inhib: 23; Yeast UUG start: -15; Rce1 inh: inactive; PABP FP inh: 2; MT1-MMP act inh RFP: 4

What do the screens show for `Cc1cccn2c(=O)c(C=NCCO)c(Nc3ccc(Cl)cc3)nc12`?
Env fusion inh: -37; eIF4H inh: 2; CSC inhib: 14; Rce1 inh: inactive; PABP FP inh: -4

What do the screens show for `CCCCOC(=O)c1ccc(NC(=O)c2cc(Cl)c(Cl)cc2C(=O)O)cc1`?
Env fusion inh: -9; eIF4H inh: -8; MT1-MMP act inh: -3; CSC inhib: 19; Rce1 inh: inactive; PABP FP inh: 9; MT1-MMP act inh RFP: -7

Results for O=C(Nc1ccccc1C(=O)NCc1ccco1)c1ccccc1 ?
eIF4H inh: -9; MT1-MMP act inh: -3; CSC inhib: -19; Yeast UUG start: 4; Rce1 inh: inactive; PABP FP inh: 19; MT1-MMP act inh RFP: -1

What do the screens show for `CCOc1cc(C(c2c(C)[nH][nH]c2=O)c2c(C)[nH][nH]c2=O)ccc1OS(=O)(=O)c1ccc(C)cc1`?
Env fusion inh: 9; eIF4H inh: 10; MT1-MMP act inh: -1; CSC inhib: -9; Yeast UUG start: -6; Rce1 inh: inactive; PABP FP inh: 10; MT1-MMP act inh RFP: -2

What do the screens show for `COc1ccc(/C=N/NC(=O)CCN2CCN(c3ccccc3)CC2)c(OC)c1OC`?
eIF4H inh: -12; MT1-MMP act inh: 1; CSC inhib: 9; Yeast UUG start: -9; Rce1 inh: inactive; PABP FP inh: 15; MT1-MMP act inh RFP: 4

Results for COc1ccc2c(c1)/C(=N/OC(=O)c1cccs1)CCC2 ?
Env fusion inh: 11; eIF4H inh: -12; MT1-MMP act inh: -3; CSC inhib: -3; Rce1 inh: inactive; PABP FP inh: -11; MT1-MMP act inh RFP: 3
